# From PubChem
# PINK1 expr mod – changes PINK1 expression; PINK1 immunofluorescence, high-content cytometry, 24 h; Potency, µM (top dose mostly 76.6 µM), for the others: at the highest dose activation (PINK1 increase), hits mostly activators; hit rate 0.2% among 410,000; active = well fitted activation curve with a large enough effect; inconclusive = small, poorly fitted or top-dose-only effect; inactive = flat fitted curve, though single readings scatter; cell line not stated here;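 further: potency means the concentration at half of the fitted maximal effect; % of control where 0% means no effect; nearly all actives have a fitted effect of over 65% in size; a mitochondrial uncoupler was the plate control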
#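 Cells are seeded, rested 12 hours, then given compound at five concentrations or DMSO for 24 hours. After fixation, blocking and antibody staining, PINK1 amount and mitochondrial localization are scored; CCCP serves as control.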
# Sfp PPTase inh – inhibitors of Bacillus subtilis Sfp phosphopantetheinyl transferase; AID 1490; Q9F4F7; hit rate 3.5% among 310,000; Biochemical Sfp PPTase activity, qHTS; Potency, µM, for inactives: max response, negative = inhibition, usual class: inhibitors; active means well fitted inhibition curve with a large enough effect; inconclusive means small, poorly fitted or top-dose-only effect, or another doubt; inactive means no such curve, though single readings can be large or run the other way;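 further: the enzyme is Sfp with the accession as filed and its product quenches rhodamine fluorescence; potency means the concentration at half of the fitted maximal effect; 0% = enzyme reaction without inhibitor and -100% = no enzyme wells; top concentration of the series not given in the record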
#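 Compounds were incubated with enzyme (final 15 nM) for 15 min at room temperature before substrate addition started the reaction. Fluorescence at 525 nm excitation, 598 nm emission was recorded immediately and after 30 minutes.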
# D2 potentiator – positive allosteric modulators of human D2 dopamine receptor. P14416. DiscoveRx D2 beta-arrestin cells, luminescence, 90 min; 100% = 57 uM dopamine signal. potentiation, % (concentration not given with the values). hit rate 0.23% among 360,000. AID 624464; active = potentiation of 50% or more; inconclusive = 30% to 50%; inactive = 30% or less;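 further: compound concentration not given in the record; tested on top of an EC20 dose of dopamine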
#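 PathHunter D2 cells, attached overnight at 37 deg C, received compound in DMSO plus dopamine at EC20 (50 nM final) for 90 min at 37 deg C. Beta-arrestin recruitment was read as luminescence after 1 h with detection reagent at ambient temperature.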
# Six1-Eya2 blk – Six1/Eya2 interaction inhibition; hit rate 0.56% among 360,000; activity change, % (concentration not given with the values); AID 651725; AlphaScreen GST-Six1/His-Eya2 binding, biochemical; active compounds read low; control for the full effect not named in the record; Q15475+O00167; in the data active = activity change below about -65%; inconclusive = about -30% to -65%; inactive = above about -30%; further: on the % scale 0 is the no-effect control and ±100 the full control effect
# Target sequence (O00167 whole entry, looked up): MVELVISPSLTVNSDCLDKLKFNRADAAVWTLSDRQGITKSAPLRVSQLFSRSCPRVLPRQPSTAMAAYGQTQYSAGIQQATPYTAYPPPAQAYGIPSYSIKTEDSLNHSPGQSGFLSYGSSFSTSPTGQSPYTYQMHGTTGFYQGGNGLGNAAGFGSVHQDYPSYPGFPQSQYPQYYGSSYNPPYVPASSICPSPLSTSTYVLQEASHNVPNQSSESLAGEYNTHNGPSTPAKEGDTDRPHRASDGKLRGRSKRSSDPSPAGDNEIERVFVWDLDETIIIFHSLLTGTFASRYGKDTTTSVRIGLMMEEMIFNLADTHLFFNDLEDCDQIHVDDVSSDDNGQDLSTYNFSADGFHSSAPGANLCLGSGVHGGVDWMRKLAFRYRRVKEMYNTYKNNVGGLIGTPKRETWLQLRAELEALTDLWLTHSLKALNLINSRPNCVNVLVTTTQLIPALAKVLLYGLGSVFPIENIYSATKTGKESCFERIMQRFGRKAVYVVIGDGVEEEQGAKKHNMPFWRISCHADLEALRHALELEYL
# Target sequence (Q15475 whole entry, looked up): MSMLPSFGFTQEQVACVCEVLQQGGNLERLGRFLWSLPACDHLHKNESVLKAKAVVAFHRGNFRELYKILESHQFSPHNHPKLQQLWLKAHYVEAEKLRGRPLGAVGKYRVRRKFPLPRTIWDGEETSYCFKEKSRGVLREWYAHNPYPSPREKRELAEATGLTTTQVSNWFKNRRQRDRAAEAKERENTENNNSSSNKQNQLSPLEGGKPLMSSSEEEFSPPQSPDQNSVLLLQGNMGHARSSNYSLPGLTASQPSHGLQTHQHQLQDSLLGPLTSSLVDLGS
#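 AlphaScreen with GST-Six1 and His-Eya2 (5X mix: 250 nM and 500 nM), glutathione donor and nickel acceptor beads; buffer 50 mM Tris pH 8.0, 300 mM NaCl, 1 mM TCEP; 1 h at 37 C in the dark.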
# TRPV1 PAM – potentiators of human vanilloid receptor 1 (TRPV1). hit rate 0.02% among 320,000. potentiation, % at 8.33 µM. AID 540277. TRPV1-expressing cells, Fluo-8 calcium influx, capsaicin EC20 potentiation; host cell line not named in the record; control for the full effect not named in the record; active means potentiation above 80%; inconclusive means 30% to 80%; inactive means below 30%; further: 0% is about no effect
#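 Fluo-8 calcium influx in TRPV1-expressing cells, kinetic read (ex 480/em 520 nm). Compound added and read 3 min for agonist activity, followed by capsaicin at EC20 final and 2 min further read for enhancement.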
# D2 agonist – agonists of human D2 dopamine receptor (beta-arrestin). P14416. DiscoveRx PathHunter D2 beta-arrestin, luminescence, 90 min; 100% = 57 uM dopamine signal. activation, % (no concentration beside the values). hit rate 0.084% among 360,000. AID 624465; in the data active = activation above about 40%; inconclusive = about 15% to 40%; inactive = below about 15%; further: compound concentration not given in the record; the text of the record calls up to 30% inactive
#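 Agonist mode: compounds alone added to overnight-plated D2 PathHunter cells for 90 min at 37 C, with 57 uM final dopamine (EC100) defining full response. Beta-arrestin recruitment detected by chemiluminescent reagent, read after 1 h at ambient temperature.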
# CtBP-E1A inh – blocks the CtBP interaction with E1A | AlphaScreen GST-E1A/His-CtBP binding, 1536-well; active compounds read low; control for the full effect not named in the record | activity change, % (concentration not given with the values) | hit rate 0.49% among 340,000; in the data active means activity change below about -65%; inconclusive means about -30% to -65%; inactive means above about -30%; further: on the % scale 0 is the no-effect control and ±100 the full control effect
#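 In 5 uL wells, 23 nL compound meets equimolar GST-E1A and His-CtBP (5X stock 125 nM each) for 2 h, 37 °C. Beads (5X, 50 ug/mL) then 1 h, 37 °C, dark.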
# An asterisk follows results filed as active; u = inconclusive; x = not tested or not shown; ! = a repeat was not active; [ ] = remark or other dose.
Molecule	PINK1 expr mod	Sfp PPTase inh	D2 potentiator	Six1-Eya2 blk	TRPV1 PAM	D2 agonist	CtBP-E1A inh
N#Cc1ccccc1Sc1ccccc1C(=O)NCC(c1ccco1)N1CCCC1 (stereo not given)	-0.7%	x	-36	0	0	-7.5	0
CCCc1cc(C(=O)Nc2ccc(C(=O)c3ccc(F)cc3)cc2)n(C)n1	u	13%	-9	2	-4	7.0	3
O=C(CCN1C(=O)/C(=C\c2ccccc2F)SC1=S)N1CCCCC1	-1.4%	15%	-7	6	-17	-1.2	-6
Fc1cccc(/C=N/Nc2nc3ccccc3[nH]2)c1	7.3%	-15%	-5	0	-16	2.8	-1
CC1=CC2=NC(=O)CC(C)(C(=O)N(CC(=O)NC3CCCC3)c3ccccc3C)N2C=C1 (stereo not given)	-0.2%	-3%	-3	0	-1	-6.0	9
CCn1c(COc2ccccc2C)nnc1SCC(=O)Nc1cc(C)on1	-3.5%[38.3 µM]	3%	8	0	7	-1.8	-8
O=C(Cn1ccc(C(F)(F)F)n1)N=Nc1c(O)[nH]c2ccc(Br)cc12	-0.6%	-17%	-6	1	15	-14	x
C#CCNC(=O)C[C@@H]1C[C@@]2(C(=O)OCC)CCC=C2N(Cc2ccc(Cl)cc2Cl)C1=O	2.9%	x	x	-7	x	x	-22
CC(=O)Nc1ccc(S(=O)(=O)Nc2nc3cc4c(cc3nc2Cl)OCCO4)cc1	1.4%	-23%	4	0	-2	-6.1	-2
O=C(COc1cccc(C(F)(F)F)c1)Nc1cccc(S(=O)(=O)NC2=NCCCCC2)c1	-0.3%	x	0	-3	x	4.1	-4
Cn1nc(C(=O)N2CCCC2)c2ccccc2c1=O	3.5%[38.3 µM]	20%	-11	4	1	-3.4	5
CC(C)c1ccc(/C=C/C(=O)NCc2ccc(S(N)(=O)=O)cc2)cc1	0.7%	21%	6	-2	-10	1.3	-10
O=C(CSc1nnc(NC(=O)c2ccco2)s1)Nc1ccccc1F	-1.2%	-2%	-8	-1	-7	0.8	x
CC(C)C[C@@H](CC#N)N1CCN(Cc2ccccc2)CCC1=O	0.8%	7%	-16	0	-6	-1.5	0
COc1ccc(N(CC(=O)N2CCc3ccccc32)S(=O)(=O)c2c(C)noc2C)cc1	-1.1%[38.3 µM]	14%	1	7	2	0.3	8
COc1cccc(/C=N/NC(=O)NC2CCCCC2)c1O	1.8%	-11%	-17	-10	-4	-5.8	-11
CC1(C(=O)Nc2ccc3c(c2)OCO3)CCN1C(=O)CCc1ccc(Cl)cc1Cl (stereo not given)	2.1%	x	-2	-12	x	-1.1	-6
CC(C)(C)C(=O)Nc1cccc(-c2nnc(-c3cccc(NC(=O)C(C)(C)C)c3)o2)c1	16%	10%	1	17	7	-3.9	23
COC(=O)[C@]12CCCCC=C1N(Cc1ccccc1)C(=O)[C@H](CC(=O)N1CCCCC1)C2	1.3%	x	x	3	x	x	-8
Cc1cnc(NC(=O)c2ccc3c(c2)C(=O)N(Cc2ccco2)C3=O)s1	2.4%	5%	-13	2	7	-1.3	3
Cc1cc(N2CCN(CC(O)C(F)(F)F)CC2)c2ccccc2n1 (stereo not given)	4.2%	3%	-13	-9	-5	0.1	-7
CCOC(=O)CC1C(=O)NCCN1C(=O)c1cccc(C(F)(F)F)c1 (stereo not given)	-0.5%	21%	-5	15	-6	1.0	-2
COc1ccc(-c2cc(C(F)(F)F)nc(NC3CCCC3)n2)cc1OC	u	19%	4	38	3	1.7	37
O=C(O)c1ccc(-c2nc3scc(-c4ccccc4)c3c(=O)[nH]2)cc1	0.9%	13%	-5	-13	-7	-3.6	-27
CCN(CC)C(=O)c1ccccc1NS(=O)(=O)c1ccc(OC)c(C(=O)N2CCOCC2)c1	2.0%	23%	0	0	1	-1.0	-14

# An excerpt from above, showing only D2 potentiator and TRPV1 PAM.
structure	D2 potentiator	TRPV1 PAM
CC(=O)Nc1ccc(S(=O)(=O)Nc2nc3cc4c(cc3nc2Cl)OCCO4)cc1	4	-2
O=C(COc1cccc(C(F)(F)F)c1)Nc1cccc(S(=O)(=O)NC2=NCCCCC2)c1	0	x

# (further entries)
Molecule	PINK1 expr mod	Sfp PPTase inh	D2 potentiator	Six1-Eya2 blk	TRPV1 PAM	D2 agonist	CtBP-E1A inh
COc1ccc(N2CCN(C(=O)Cn3ncc4c([nH]c5ccccc54)c3=O)CC2)cc1	4.1%	9%	0	-1	-12	-2.4	10
COC(=O)Cc1ccc(OC(=O)CCS(=O)(=O)c2ccc(C)cc2)cc1	0.1%	x	3	-10	15	-1.5	2
COc1cccc2cc(C(=O)NCC3CCCO3)c(=O)oc12 (stereo not given)	-0.7%	20%	-6	7	2	-1.5	-2
CS(=O)(=O)c1ccc(-c2cccc(NC(=O)c3ccco3)c2)nn1	1.5%	x	-3	-14	u	2.6	-10
COc1cccc(-c2c(C(=O)N/N=C(\C)c3cccnc3)nnn2-c2nonc2N)c1	-1.9%	13%	5	-1	-5	-1.3	2
COc1ccc(C)cc1NC(=O)C(C)N(c1ccc(C)cc1)S(C)(=O)=O (stereo not given)	12%[38.3 µM]	11%	-7	-2	-10	-3.3	-4
C=CCOc1cccc(CNn2nnnc2N)c1	0.1%	24%	-2	-7	2	-7.3	2
CNC(=S)N(CCc1ccc(OC)c(OC)c1)C1CC(=O)N(c2ccccc2)C1=O (stereo not given)	u	-12%	-6	5	-13	-2.5	1
O=C(NNc1ccc(C2CCCCC2)cc1)C(O)(c1ccccc1)c1cccs1 (stereo not given)	u	-9%	-26	-11	-4	-6.5	4
O=C(CN1CCN(S(=O)(=O)/C=C/c2ccccc2)CC1)NC(=O)NCc1ccco1	0.5%[38.3 µM]	-18%	8	-6	-1	0.2	-2
COc1cc2c(cc1C1C(C#N)=C(N)OC3=C1C(=O)CC(C)(C)C3)OCO2 (stereo not given)	0.1%	10%	-22	7	u	-1.4	x
COC(=O)c1ccc(S(=O)(=O)N2CCc3ccccc32)cc1	2.9%	4%	3	9	-13	5.8	15
CC(=O)Nc1cc(-c2ccccc2)ccc1O	1.3%	-11%	1	-3	u	-1.9	4
CC(=O)c1sc(N/N=C/c2ccc(C(C)C)cc2)nc1C	1.3%	6%	-4	1	0	0.4	4
O=C1CCCc2c1cc(C(=O)NC1CCSC1=O)c(=O)n2-c1ccccc1 (stereo not given)	0.2%	50µM*	21	6	3	-0.2	5
O=C(CN1C(=O)NC2(CCCC2)C1=O)Nc1nc2ccc(F)cc2s1	1.5%	x	4	-3	-12	-12	2
COc1ccc(OC)c(CCNC(=O)c2sc3nc4n(c(=O)c3c2C)CCC4)c1	0.4%	12%	7	-5	-10	2.2	-13
O=C(c1ccc(S(=O)(=O)N2CCCCCC2)cc1)N1CCN(c2ccccc2)CC1	2.7%	-3%	-9	7	-10	-2.3	18
C=CCn1c(SCC(=O)c2ccccc2)nnc1-c1ccc2c(c1)OCO2	4.2%	u	7	-9	-4	3.0	10
C[C@H](CO)N1C[C@H](C)[C@@H](CN(C)Cc2ccccn2)Oc2ncc(Br)cc2C1=O	0.8%	x	4	-3	x	-0.4	2
Nc1ccc(Br)cc1-c1nc2ccccc2[nH]c1=O	1.1%	7%	2	-8	-2	5.9	x
CCC1CCCCN1S(=O)(=O)Cc1ccccc1Cl (stereo not given)	11%	16%	-4	14	16	5.4	11
CC(=O)Nc1ccc(S(=O)(=O)N2CCC(NC(=O)C(Cc3ccccc3F)NC(C)=O)CC2)cc1 (stereo not given)	-1.3%	11%	-1	8	11	-2.6	2
COc1cc2nc(CN(C)Cc3ccc(OC)c(OC)c3OC)[nH]c(=O)c2cc1OC	0.0%	-1%	-2	-4	12	-2.5	x
O=C(Nc1ccc(F)cc1)C1CCCN1S(=O)(=O)c1ccc(Br)cc1 (stereo not given)	0.4%	12%	-28	-5	-11	0.0	0
CCN(CC)CCNc1ccc(C)c2sc3ccc(O)cc3c(=O)c12	-4.1%	x	-34	u	x	-0.9	u
Cc1ccc(C)c(N(CC(=O)N2CCCC2)S(C)(=O)=O)c1	0.0%	8%	-2	3	-7	0.6	8
CCN(CC(=O)NCc1ccc(F)cc1)S(=O)(=O)c1ccc(Cl)s1	3.3%	x	-13	3	x	-9.0	5
CC(C)c1nc(SCC(=O)Nc2cccc(C(=O)O)c2)c2c3c(sc2n1)CCCC3	-0.4%	u	-12	u	3	-3.0	-17
O=C(/C=C/c1ccc([N+](=O)[O-])cc1)c1cccnc1	-1.4%	18µM*	-18	5	-6	-3.9	0
CN(C/C(O)=C(\C#N)c1ccccc1)C1CCCCC1	3.0%	-12%	-6	-2	u	0.4	0
CCOc1ccc(NC(=O)NCCCCc2ccccc2)cc1	-0.5%	22%	-22	4	-8	-0.4	9
CC1=C(C(=O)OCc2ccccc2)C(c2ccc([N+](=O)[O-])cc2)NC(=O)N1CCCCCC(=O)O (stereo not given)	1.0%	45µM*!	-7	-10	26	-1.9	-1
CCCCCn1c(SCc2ccncc2)nc2cc(C(=O)NCc3ccco3)ccc2c1=O	17%[38.3 µM]	-18%	-11	-7	8	-2.0	0
COc1ccc2cc3cc(C(=O)NCc4ccco4)oc3nc2c1	-1.2%	-8%	9	-12	10	-1.3	-27
O=C1NC(=O)C2(COC(c3ccccc3Cl)OC2)S1 (stereo not given)	-0.9%	8%	0	3	6	-2.6	7
CN1CCN(C(=O)C2=C[C@@H](C3CCCCC3)C[C@@H](OCCCCO)O2)CC1	-0.4%	1%	-1	6	-3	-0.3	0
Cc1ncsc1C(=O)N1N=C2/C(=C/c3ccccc3)CCCC2C1c1ccccc1 (stereo not given)	3.1%	-9%	-30	-9	14	-0.9	-15
O=C(NCc1n[nH]c(=S)n1-c1ccccc1)c1ccco1	u	u	-3	3	-15	1.8	5
Cc1cc(=O)oc(C)c1C(=O)Nc1cnc2ccccc2c1	-2.5%	19%	-4	-1	19	-3.0	7
C=CCOc1ccc(C(=O)NC2CCCCC2)cc1	-1.7%	14%	-8	2	-19	-3.3	-1
CC(=O)Nc1cccc(OCc2cnc(Cl)s2)c1	1.6%	8%	-2	7	9	-5.4	4
CCOC(=O)Cn1c2ccccc2c2nc(C)sc21	-0.1%	-4%	-23	7	1	-1.8	0
